Assay outcomes (PubChem BioAssay)
TRPML1 blocker: blocks the human TRPML1 channel. AID 624415. TRPML1-inducible cells, Ca2+ dye fluorescence, FDSS; stronger effect = lower value; inhibition of EC80 agonist-evoked calcium signal. hit rate 0.02% among 390,000. Q9GZU1. activity change, negative = inhibition, % (test concentration not listed); in the data active means activity change below about -50%; inconclusive means about -30% to -50%; inactive means above about -30%;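 note: stimulus is agonist 54-4 at its EC80 concentration; % is set by controls: 0 for no effect and ±100 for the full control effect; compound concentration not given in the record; the text of the record puts the active cut at -80%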
Target sequence (Q9GZU1 whole entry, looked up): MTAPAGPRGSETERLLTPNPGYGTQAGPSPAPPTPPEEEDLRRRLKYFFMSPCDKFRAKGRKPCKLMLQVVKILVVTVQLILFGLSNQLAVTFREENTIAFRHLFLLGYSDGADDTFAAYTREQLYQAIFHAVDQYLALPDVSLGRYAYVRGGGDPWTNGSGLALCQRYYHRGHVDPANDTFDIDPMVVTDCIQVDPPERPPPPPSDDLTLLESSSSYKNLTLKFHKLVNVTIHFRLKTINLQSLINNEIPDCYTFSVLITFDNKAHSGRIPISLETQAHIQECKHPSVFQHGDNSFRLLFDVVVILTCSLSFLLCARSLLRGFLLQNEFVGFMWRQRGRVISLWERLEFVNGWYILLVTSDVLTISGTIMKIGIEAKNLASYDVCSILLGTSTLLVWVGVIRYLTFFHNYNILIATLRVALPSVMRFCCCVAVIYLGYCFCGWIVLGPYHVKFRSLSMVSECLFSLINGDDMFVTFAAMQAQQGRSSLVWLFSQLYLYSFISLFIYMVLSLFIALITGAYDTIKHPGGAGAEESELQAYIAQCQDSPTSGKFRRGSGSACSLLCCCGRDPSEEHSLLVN
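Calcium fluorescence in TRPML1-DL cells induced overnight with Tet: a 110 s read after compound pin addition, then a 110 s antagonist read after challenge with 54-4 at 4 uM final (EC80).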
ClpP mod: qHTS Assay for Activators of ClpP; ATP-dependent Clp protease proteolytic subunit (Bacillus subtilis (strain 168)), P80244; purified B. subtilis ClpP, FRET peptide cleavage, 20 min; Potency, µM (titrated, usually from 57.5 µM), for inactives: top-dose activity change, negative = active; hit rate 1.9% among 340,000; active = well fitted falling curve with a large enough effect; inconclusive = small, poorly fitted or top-dose-only effect; inactive = no such curve, though single readings can be large or run the other way; note: potency is the fitted concentration of half-maximal effect; the source files actives as falling curves though it sought activators and does not explain the sign; nearly all actives have a fitted effect of over 65% in size; many hits overshoot -100%
Target sequence (P80244 whole entry, looked up): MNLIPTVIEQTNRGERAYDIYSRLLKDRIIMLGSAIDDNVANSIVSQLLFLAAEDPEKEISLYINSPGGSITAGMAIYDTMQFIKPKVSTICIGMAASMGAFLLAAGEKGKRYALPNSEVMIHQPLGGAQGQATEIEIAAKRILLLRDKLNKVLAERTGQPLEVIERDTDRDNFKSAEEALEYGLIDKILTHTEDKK
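FRET quenching reversal measured ClpP activation: 10 microg/mL B. subtilis ClpP at pH 8 with the FRET-FV decapeptide, read at 430 nm after 320 nm excitation. The 20-min minus 0-min signal was scaled between DMSO/no-enzyme wells and ADEP (5.8 microM final).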
gsp agonist: gsp mutant agonism; gsp mutant cells, cAMP HTRF, 30 min; control for the full effect not named in the record; Potency, µM (doses to about 76.9 µM), for inactives: at the highest dose activation (cAMP increase), actives largely listed as activators; hit rate 0.13% among 340,000; AID 624287; active = well fitted activation curve with a large enough effect; inconclusive = small, poorly fitted or top-dose-only effect, or another doubt; inactive = no such curve, though single readings can be large or run the other way; cell line not stated here;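 note: phosphodiesterase inhibitor Ro 20-1724 added with compounds to block cAMP breakdown; potency is the fitted concentration of half-maximal effect; nearly all actives have a fitted effect of over 60% in size; about a fifth of the inactives were tested at one dose only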
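Cells in DMEM/10% FBS with G418 were pretreated with compounds in DMSO plus […] (300 uM stock) for 30 min at 37C. cAMP was measured by HTRF (cAMP-d2 plus anti-cAMP antibody-K) after 30 min at room temperature.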
TRPML1 agonist: agonists of human TRPML1 channel; TRPML1-expressing cells, Ca2+ dye fluorescence, FDSS; host cell line not named in the record; reference of the full effect not given here; activation, % (test concentration not listed); hit rate 0.12% among 410,000; Q9GZU1; AID 624414; in the data active = activation above about 50%; inconclusive = about 30% to 50%; inactive = below about 30%; note: 0% is about no effect; the text of the record puts the active cut at 80%
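Tetracycline-induced TRPML1-DL cells are seeded and incubated overnight before loading with a no-wash Ca2+ dye and quencher. Agonist activity is taken from the 110 s fluorescence read following compound pin-transfer on an FDSS, before EC80 54-4 challenge.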
gsp antag: antagonists of gsp mutant (McCune-Albright syndrome). gsp-mutant cells, cAMP HTRF, 30 min; control for the full effect not named in the record. Potency, µM (top dose mostly 76.9 µM), for inactives: at the top dose activity change, negative = inhibition, actives largely listed as inhibitors. hit rate 0.4% among 340,000; active = falling curve of any shape with a large fitted effect; inconclusive = falling curve, mostly with a smaller effect; inactive = flat or rising curve; cell line not stated here;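 note: intracellular cAMP measured with PDE inhibitor Ro 20-1724 present during compound exposure; potency is the fitted concentration of half-maximal effect; % is set by controls: 0 for no effect and ±100 for the full control effect; nearly all actives have a fitted effect of over 65% in size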
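HTRF cAMP read-out (cAMP-d2 plus anti-cAMP antibody-K in lysis buffer, 30 min RT). Before lysis, cells are exposed to compounds with […] for 30 min at 37C in DPBS containing Ca/Mg, BSA and Tween 20.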
Menin MLL FP FL: menin-MLL binding inhibition, fluorescein peptide. AID 1766. FP activity change, % at 61.4 µM. Fluorescence polarization, fluorescein-MLL peptide displacement from menin. 290,000 tested, under 10 active; inconclusive = falling polarisation curve, or a change in total fluorescence; inactive = total fluorescence flat and polarisation flat or rising; no compound was filed as active; the % refers to the polarisation; negative = inhibition;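 note: % of control where 0% means no effect; inhibitors lower the polarisation; unlabelled MLL peptide was the positive control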
The depositor's hits bear a star; ? = inconclusive; / = not tested or not shown; & = joins results of further samples; [ ] = another dose, or the depositor's remark.

Structure | gsp agonist | ClpP mod | gsp antag | TRPML1 blocker | Menin MLL FP FL | TRPML1 agonist
COc1ccc(S(=O)(=O)N2CCOCC2)cc1NC(=O)CCOc1ccc(C(C)(C)C)cc1 | 4%[15.4 µM] | 0.5% | -17% | -24 | / | 0.4
CC1CCN(S(=O)(=O)c2ccc3c(ccc(=O)n3CC(=O)NCc3ccc(Cl)cc3)c2)CC1 | / | -7.6% | / | 20 | / | 0.4
COc1cc2c(cc1OC)C(=O)Cc1ccc3c(c1CN(C)CC2)OCO3 | / | 0.6% | 12% | / | ? | /
O=C(CN1CCN(c2ncccn2)CC1)N1CCCC1 | -2%[15.4 µM] | / | / | 11 | 0.9 | -0.1
COc1ccc(C)cc1NC(=O)c1cccc(C(=O)Nc2cc(C)ccc2OC)c1 | -19% | -2.8% | ? | -15 | -2.8 | 1.3
CCOC(=O)C(NC(C)=O)(Nc1ccc(S(=O)(=O)Nc2ccncn2)cc1)C(F)(F)F (stereo not drawn) | 17% | 3.6% | 12% | 13 | -1.4 | 6.1
S=c1[nH]nc(COc2ccc(Cl)cc2)n1Cc1ccco1 | 12% | / | ? | 26 | 1.3 | 2.7
CS(=O)(=O)c1ccc(C(=O)Nc2cc(-c3ccccc3)nn2-c2ccccc2)cc1 | / | -6.0% | -7% | -5 | / | 1.1
O=C(COc1ccc(Cl)cc1)NNC(=O)c1ccc(=O)[nH]c1 | 3%[15.4 µM] | -0.8% | 5% | 2 | / | -0.2
COC(=O)c1ccccc1NC(=O)c1cc(-c2ccc(Cl)cc2)on1 | / | -0.3% | / | 27 | / | -0.8
COc1ccccc1/C=C1\SC(=S)N(CC(=O)NC2CCS(=O)(=O)C2)C1=O (stereo not drawn) | 18% | 2.1% | -40% | 5 | / | -0.8
CS(=O)(=O)c1ccccc1C(=O)Nc1nc2ccccc2[nH]1 | -22%[15.4 µM] | / | 0% | -12 | 0.6 | -0.1
COc1ccc(CCC(=O)NNC(=O)c2cc(Cl)ccc2OC)cc1 | ? | / | 1% | -7 | 0.1 | 5.8
COc1cc(C(=O)NCCSc2c(-c3ccccc3)[nH]c3ccccc23)cc(OC)c1OC | / | 4.1% | / | -13 | / | 0.4
CCCCN(C(=O)c1[nH]c(C)c(C(C)=O)c1C)c1c(N)n(CCCC)c(=O)[nH]c1=O | 5% | 0.7% | 16% | 10 | / | -0.8
CCCOc1ccc(C(=O)NNC(=S)NC(=O)c2ccccc2)cc1 | -8% | -1.0% | -16% | -13 | 0.2 | -0.3
CCOc1ccc(CCNC(=O)Cn2c(C)c3cnn(-c4ccccc4)c(=O)c3c2C)cc1 | / | 1.3% | / | -4 | / | -0.8
COc1ccc(-c2cc3c(=O)n(CC(=O)Nc4ccc(Br)c(C)c4)ccn3n2)cc1OC | / | -15% | / | -14 | / | 1.3
Cc1cc(C(=O)CSc2nnc(-c3cccnc3)n2-c2ccccc2F)c(C)n1C | -44%[inhibitor] | -1.5% | -23% | -4 | 0.4 | -0.9
CCOc1c2ccc(C(=O)NCCCCc3ccccc3)cc2nn1CC | / | 4.2% | 0% | -8 | -0.4 | -0.9
O=C(CCN1N=C(c2ccccc2)CCC1=O)NCCCN1CCOCC1 | 7% | -1.7% | 11% | 35 | / | -0.3
COCc1ccc([C@@H]2C[C@H]3CN(Cc4cccnc4)C(=O)[C@]34CCCN24)o1 | 18% | -1.8% | 5% | 32 | -0.6 | 0.2
O=C(Cc1ccc(NC(=O)C2CCN(C(=O)C3CCC3)CC2)cc1)Nc1ccc(C(=O)N2CCOCC2)cc1 | / | 0.3% | 0% | 27 | / | -0.6
O=C(N/N=C/c1cccc(Cl)c1)C1CCCC1 | -42%[inhibitor] | 0.0% | 2% | 17 | / | 1.7
CCCCNC(=O)CCn1c(=S)[nH]c2cc3c(cc2c1=O)OCO3 | 8% | 1.2% | 19% | 18 | 3.4 | 0.0
Cc1cccc(Nc2nc(N)nc(CCl)n2)c1 | 1%[15.4 µM] | -0.2% | 19% | 2 | 1.1 | -0.6
CS(=O)(=O)N(CC(=O)O)c1ccc(C23CC4CC(CC(C4)C2)C3)cc1 | -26% | -1.3% | -26% | -8 | 0.0 | -0.1
COc1cc(/C=C/C(=O)OCC(=O)N2c3ccccc3CC2C)cc(OC)c1OC (stereo not drawn) | ? | 4.3% | -16% | 22 | / | 2.1
COc1ccc(NS(=O)(=O)c2cccc(C(=O)N3CCOCC3)c2)cc1 | -13% | -1.1% | / | 10 | / | -0.1
CCOC(=O)CSc1nnc(CNC(=O)c2ccc([N+](=O)[O-])cc2)n1C | -19%[15.4 µM] | -5.2% | 7% | 5 | -0.3 | -0.4
COc1ccc(CNC(=O)C2CCN(S(=O)(=O)c3ccc4c(c3)N(C(C)=O)CCO4)CC2)cc1 | ? | -0.3% | -5% | 6 | 0.4 | -0.5
C[C@@H](C(=O)NNC(=O)c1ccc(Cl)cc1)N1C(=O)C2CC=CCC2C1=O (stereo partly drawn) | -1% | / | 10% | -21 | / | 1.3
CCn1c(SCC(=O)Nc2cc(C)on2)nnc1-c1ccccc1 | -28% | -1.9% | -3% | -6 | 1.8 | 0.2
CCC(C)(C)NC(=O)C(NS(=O)(=O)c1cccs1)c1ccccc1 (stereo not drawn) | 14% | -3.5%&2.5% | 7% | 9&7 | -3.0 | 2.2&1.7
COc1cc(OC)cc(C(=O)NC(C)CCc2ccccc2)c1 (stereo not drawn) | 3% | -1.2% | 0% | -13 | 0.1 | -0.6
Cc1cccc(-c2nn(-c3ccccc3)cc2C(=O)N2CCN(C3CCS(=O)(=O)C3)CC2)c1 (stereo not drawn) | -4% | -3.0% | 2% | 14 | / | 0.1
C=CCn1c(SCC(=O)c2ccc(F)cc2)nnc1-c1ccc2c(c1)OCO2 | -23% | / | -21% | -7 | -0.3 | 2.8
OC(COc1ccccc1)CN1CCN(c2ccccc2)CC1 (stereo not drawn) | -7%[15.4 µM] | 1.3% | 6% | -6 | / | -0.2
Cc1nn(C)c(C(=O)NNC(=S)NCC(C)C)c1Cl | 3% | 8.9µM* | -4% | 7 | 1.3 | 0.7
COc1ccccc1Nc1nc(-c2ccccc2Cl)c2cc(Br)ccc2n1 | / | -0.9% | / | -2 | / | 0.6
Cc1sc2nc(C3CC3)nc(SCC(=O)NCc3ccco3)c2c1C | 11% | -4.9% | 7% | -5 | 2.1 | 1.5
O=C(CNC(=O)C1CCCCC1)Nc1ccccc1 | 13% | -3.0% | 18% | 0 | -2.8 | -0.1
NS(=O)(=O)c1ccc(NC(=O)C2CCCO2)cc1 (stereo not drawn) | 0% | -2.2% | 8% | -9 | -2.1 | 0.6
COC(=O)c1cc(CNC(=O)CCCSc2ccccc2)ccc1OC | -13% | / | -8% | -6 | / | 2.4
COc1ccc(C(=O)NC(=S)Nc2ccc3[nH]c(=O)[nH]c3c2)c(OC)c1 | ? | 0.1% | 28% | 4 | / | -0.2
OC(COc1ccc2ccccc2c1Cl)CN1CCOCC1 (stereo not drawn) | -28% | -3.5% | 13% | 6 | 0.2 | -0.1
CCCOc1ccc2c(c1)C(=NN=C(N)N)c1cc(OCCC)ccc1-2 | 16% | / | 6% | -3 | -4.1 | 2.1
Cc1ccc(C(=O)OCC(=O)NCc2ccco2)cc1S(=O)(=O)N1CCOCC1 | 40%[15.4 µM] | / | -5% | -7 | / | 1.7
CC1CC(C)CN(C(=O)CSc2nc3ccsc3c(=O)n2Cc2ccccn2)C1 (stereo not drawn) | -51%[inhibitor] | -1.1% | 1% | -4 | 2.2 | -0.4
CCN(CC)S(=O)(=O)c1cc(C(=O)OCC(=O)Nc2c(F)cccc2F)ccc1F | -4% | -2.5% | -10% | 11 | / | -0.6

Carrying on.
Structure | gsp agonist | ClpP mod | gsp antag | TRPML1 blocker | Menin MLL FP FL | TRPML1 agonist
CC(C(=O)Nc1ccccc1Sc1ccccc1)N(c1ccccc1)S(C)(=O)=O (stereo not drawn) | -1% | -2.7% | -19% | -15 | 4.1 | 2.7
COc1ccc(Cc2nc(-c3ccccn3)no2)cc1 | -26% | -1.6% | 11% | 1 | 6.0 | 0.3
COc1ccc(N2CCN(C(=O)c3cc(C)on3)CC2)cc1 | -8% | -2.5% | 6% | -2 | 0.4 | 1.0
CN(Cc1ccccc1)c1ccc(C(=O)O)cc1[N+](=O)[O-] | -42%[inhibitor] | -1.0% | -24% | -7 | 2.7 | 0.3
c1ccc2c(NCCc3c[nH]c4ccccc34)c3ccccc3nc2c1 | -15% | -5.4% | -13% | -4 | 0.2 | -0.6
O=C(NC1CC1)c1c[nH]c2ccc(S(=O)(=O)Nc3cccc(C(F)(F)F)c3)cc2c1=O | 11% | -10% | -5% | -18 | 2.4 | -0.4
Cc1nn(CCCC(=O)Nc2sc3c(c2C#N)CCC3)c(C)c1[N+](=O)[O-] | 9% | -0.9% | -2% | 6 | 2.5 | -0.4
Cc1[nH]c(=O)[nH]c(=O)c1S(=O)(=O)Nc1ccc(Oc2ccccc2)cc1 | -33% | ? | 3% | 8 | -1.8 | -0.7
COc1ccccc1-c1nc2ccccc2c(=O)n1NC(=O)c1cccs1 | -8% | -1.3% | 9% | -18 | 5.4 | 0.6
COc1ccccc1CN1CCN(C(c2ccccc2)c2ccccc2)CC1 | ? | -0.7% | -16% | 7 | 0.8 | 0.0
O=C(CNC(=O)c1ccco1)N=Nc1c(O)n(CCc2ccccc2)c2ccccc12 | -34%[inhibitor] | 0.7% | 0% | 38 | 1.2 | 1.9
Cc1cccc(-n2nnc(C(=O)NCc3ccco3)c2N)c1 | -14% | -0.9% | 13% | -1 | 2.7 | 0.1
O=C(CCn1c(=O)oc2ccccc21)NC1=NCCS1 | -16% | 0.4% | 13% | -4 | 2.2 | 0.4

Three entries out of the list, sorted by molar mass, smallest number first.
Structure | gsp agonist | ClpP mod | gsp antag | TRPML1 blocker | Menin MLL FP FL | TRPML1 agonist
CN(Cc1ccccc1)c1ccc(C(=O)O)cc1[N+](=O)[O-] | -42%[inhibitor] | -1.0% | -24% | -7 | 2.7 | 0.3
COc1ccccc1CN1CCN(C(c2ccccc2)c2ccccc2)CC1 | ? | -0.7% | -16% | 7 | 0.8 | 0.0
O=C(NC1CC1)c1c[nH]c2ccc(S(=O)(=O)Nc3cccc(C(F)(F)F)c3)cc2c1=O | 11% | -10% | -5% | -18 | 2.4 | -0.4

Reprinted from the entries so far for reference:
Structure | gsp agonist | ClpP mod | gsp antag | TRPML1 blocker | Menin MLL FP FL | TRPML1 agonist
Cc1nn(CCCC(=O)Nc2sc3c(c2C#N)CCC3)c(C)c1[N+](=O)[O-] | 9% | -0.9% | -2% | 6 | 2.5 | -0.4
Cc1[nH]c(=O)[nH]c(=O)c1S(=O)(=O)Nc1ccc(Oc2ccccc2)cc1 | -33% | ? | 3% | 8 | -1.8 | -0.7
